Assay outcomes from PubChem.
SmPrx2 inh: blocks S. mansoni peroxiredoxin 2 enzymatic activity; actives 0.07% (n = 65,000); S. mansoni Prx2 activity coupled to TGR/GSH (TGR is thioredoxin glutathione reductase), NADPH fluorescence loss, qHTS; some inactives read as strong as hits; Potency, µM; active means full or partial inhibition curve with a strong effect at the top dose; inconclusive means weaker partial or single-point curve; inactive means no accepted curve; note: series up to 57 µM; many of its hits are not listed in these tables
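Enzyme mix: 100 uM NADPH, 25 nM TGR, 700 uM GSH, 50 nM Prx2 in 100 mM phosphate pH 7.4, 10 mM EDTA, 0.01% Tween-20. 15 min RT with compound; NADPH/GSH added, H2O2 starts reaction; NADPH fluorescence read 8 min.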
Anthrax LT inh: anthrax lethal toxin internalization inhibition. actives 0.67% (n = 70,000). Cells, anthrax lethal toxin internalization, FRET ratio (460/530). Potency, µM (titrated, usually from 40 µM), for inactives: top-dose activity change, negative = inhibition, usual class: inhibitors; active = well fitted falling ratio curve with the 530 nm signal flat; inconclusive = other ratio curves, or a change in one channel alone; inactive = flat curves in the ratio and both channels; the % refers to the ratio; note: % is set by controls: 0 for no effect and ±100 for the full control effect; nearly all actives have a fitted effect of over 50% in size; tested in ME-180 cells; beta-lactamase reporter
Numbers without * were called inactive; u = inconclusive; x = not tested or not shown; & = joins results of further samples; [ ] = dose if it differs, or a comment. Potency is the fitted concentration of half-maximal effect.

Sample of the layout, 4 compounds:
Each structure is followed by: Anthrax LT inh, SmPrx2 inh
COCc1c(C(=O)OCC(=O)N2c3ccccc3CC2C)oc2ccccc12 (centres undefined)
 : -10%, >57
CCCCOC(=O)CSc1nc2c(cc1C#N)C(=O)CC(C)(C)C2
 : x, >57
COC(=O)CN(c1ccccc1OC)S(=O)(=O)c1ccccc1
 : 59%, >57
COc1ccc(Nc2cc(C(=O)NCCCN3CCN(C)CC3)c3ccccc3n2)cc1OC
 : -5%, >57

This part in full, repeating the preview:
Each structure is followed by: Anthrax LT inh, SmPrx2 inh
COCc1c(C(=O)OCC(=O)N2c3ccccc3CC2C)oc2ccccc12 (centres undefined)
 : -10%, >57
CCCCOC(=O)CSc1nc2c(cc1C#N)C(=O)CC(C)(C)C2
 : x, >57
COC(=O)CN(c1ccccc1OC)S(=O)(=O)c1ccccc1
 : 59%, >57
COc1ccc(Nc2cc(C(=O)NCCCN3CCN(C)CC3)c3ccccc3n2)cc1OC
 : -5%, >57
CC(C)CNC(=O)c1cccc(NC(=O)C2CCCO2)c1 (centres undefined)
 : -5%, >57
Cc1ccc(C(=O)Nc2ncc3c(n2)CC(c2ccco2)CC3=O)cc1 (centres undefined)
 : -8%, >57
Cc1ccccc1NC(=O)c1nc[nH]c1C(=O)NCc1ccccc1
 : -13%, u
NS(=O)(=O)c1ccc(NC(=O)Nc2ccccc2F)cc1
 : u, >57
CS(=O)(=O)N1CCc2cc(S(=O)(=O)N3CCN(Cc4ccc5c(c4)OCO5)CC3)ccc21
 : -11%, >57
CC(C)[C@@H](OCc1ccccc1)[C@H](C)/C=N\OC[C@@H](O)COCc1ccco1
 : -8%[8 µM], x
Cc1onc(-c2c(Cl)cccc2Cl)c1C(=O)N1CCc2ccccc21
 : u, x
CCCCCCCCCCCCCCCCOC[C@@H](COCC(F)(F)F)OP(=O)(O)OCO
 : u, >57
CCOC(=O)c1ccccc1NC(=O)CSc1nccn1C
 : u, >57
COc1ccccc1N(CC(=O)Nc1ccccc1C(=O)NC(C)C)S(C)(=O)=O
 : -1%, >57
O=C(CSc1ncnc2ccccc12)NCc1ccco1
 : 9%, >57
Cc1cc(Nc2ccccc2F)n2ncnc2n1
 : -4%, >57
CSc1snc(SCC(N)=O)c1C#N
 : 10%, >57
CCCC(=O)Nc1cc(OC)c(OC)cc1C(=O)O
 : -5%, >57
Cc1ccc(N2CCN(S(=O)(=O)c3ccc(F)c(C)c3)CC2)c(C)c1
 : u, >57
CSc1c[n+]2c(n1C)CCC2
 : -10%, >57
COc1cccc2cc(-c3cn4cccc(C)c4n3)c(=O)oc12
 : -3%, >57
O=C(O)CCc1ccc(-c2cccs2)n1CC1CCCO1 (centres undefined)
 : u, x
FC(F)(F)c1cccc(-c2noc(-c3cc(-c4ccccc4)c(C(F)(F)F)s3)n2)c1
 : -29%, x
Cc1ccc(-n2c(C)cc(C(=O)COC(=O)c3c(C)noc3C)c2C)cc1
 : u, >57
O=C(O)[C@H]([C@H]1NCCS1)N1Cc2ccccc2C1
 : -5%[8 µM], x
Cc1cc(/C(=N/O)C(C)(C)NO)ccc1Cl
 : -2%, >57
Cc1nc(-c2ccc(NC(=O)c3cccs3)cc2)cs1
 : -9%, x
O=C(CSc1nc2c(c(=O)[nH]1)CCC2)Nc1cccc(Cl)c1
 : 3%, >57
O=C(CN(c1ccc(F)cc1)S(=O)(=O)c1ccc2c(c1)OCCO2)N1CCOCC1
 : 5%, >57
CCc1ccccc1N1CCN(S(=O)(=O)c2ccc(F)c(C)c2)CC1
 : x, >57
CC(C)NC(=O)Cn1nnc(-c2cccc(NC(=O)c3ccccc3F)c2)n1
 : -12%, >57
CCOC(=O)C1CCN(c2c(N3CCCCCC3)c(=O)c2=O)CC1
 : -2%, >57
CCOc1cccc(N2C(=O)CC(N3CCC(C(N)=O)(N4CCCCC4)CC3)C2=O)c1 (centres undefined)
 : -3%, >57
O=C(NCCCN1CCN(c2cccc(Cl)c2)CC1)c1nc(-c2ccncc2)no1
 : u, >57
CCC(=O)OC1(c2cccc(C)c2)CC(C)N(C)CC1C (centres undefined)
 : u, >57
CC(C)(C)NC(=O)c1ccccc1-c1nc(-c2ccccc2Cl)no1
 : u, >57
Cc1cccc(NC(=O)Nc2cccc(F)c2)n1
 : -10%, x
COc1ccc(-c2nc3cnc(N4CCOCC4)nc3n(C3CC3)c2=O)cc1
 : u, >57
O=S(=O)(c1ccc(F)cc1)N1CCN(CC(O)COCc2cccs2)CC1 (centres undefined)
 : -17%, >57
CC1(C)CC(=O)C2=C(C1)OC(N)=C(C#N)C21C(=O)N2CCCc3cccc1c32 (centres undefined)
 : -1%, >57
COCCn1cc(C(=O)N2CCN(C)CC2)c2c3ccccc3n(C)c2c1=O
 : 0%, >57
COC(=O)c1ccccc1NC(=O)CSc1nc(N)cc(N)n1
 : 13%, >57
O=C(O)C1CSC(c2cccnc2)N1 (centres undefined)
 : 11%, x
CCOc1ccccc1OCC(=O)Nc1ccc(S(=O)(=O)Nc2ncccn2)cc1
 : 6%, >57
COc1ccccc1-c1cncnc1NCc1cnc(C)cn1
 : -7%, >57

Profiles from above. Values in the order: Anthrax LT inh	SmPrx2 inh
Record of `CC(C)(C)NC(=O)c1ccccc1-c1nc(-c2ccccc2Cl)no1` → u	>57
Record of `CCOC(=O)C1CCN(c2c(N3CCCCCC3)c(=O)c2=O)CC1` → -2%	>57
Record of `COc1ccccc1-c1cncnc1NCc1cnc(C)cn1` → -7%	>57
Record of `CCOc1ccccc1OCC(=O)Nc1ccc(S(=O)(=O)Nc2ncccn2)cc1` → 6%	>57
Record of `COc1ccc(-c2nc3cnc(N4CCOCC4)nc3n(C3CC3)c2=O)cc1` → u	>57

Additional entries follow:
Each structure is followed by: Anthrax LT inh, SmPrx2 inh
Cc1cc(C)cc(-n2nnc(C(=O)NCc3ccc4c(c3)OCO4)c2N)c1
 : -13%, >57
O=C(CN1CCN(c2cccc(Cl)c2)CC1)N1CCCC1
 : -11%, >57
C=CCSc1nc2nc(C)cc(C)n2n1
 : -14%, >57
CC1(C)CC(=O)C2=C(C1)NC(Nc1nc3ccccc3o1)=NC21CCCC1
 : -3%, >57
CCOC(=O)c1cnc(Nc2ccc(OCC)cc2)nc1C
 : -8%, >57
CCn1c(SCC(=O)Nc2ccccc2OC)nnc1-c1cnccn1
 : -2%, >57
CC(=O)C1=C(O)C(=O)N(Cc2ccccc2)C1c1ccco1 (centres undefined)
 : 1%, >57
c1ccc(N2CCOCC2)c(Nc2nc3ccccc3n3cnnc23)c1
 : -5%, >57
O=C(Nc1cccc(-c2nc3ccccc3[nH]2)c1)c1cccc(NC(=O)c2ccco2)c1
 : 16µM*, x
CCOC(=O)C1=C(C)NC(=O)NC1C (centres undefined)
 : -10%, >57&>57
O=C(c1cnccn1)N1CCC[C@@]2(CCN(c3ccccc3)C2)C1
 : u, >57
O=C(NCc1cccnc1)NC1(C(F)(F)F)Oc2ccccc2O1
 : 22%, >57
CC(=O)OC1CC(C)N(C(=O)c2ccccc2)c2ccc(C)cc21 (centres undefined)
 : 2%, >57
CCOc1cccc(C(=O)Nc2nnc(-c3ccco3)s2)c1
 : -12%, x
Cn1c(O)c(C=Nc2ccc(Cl)cc2)c(=O)n(C)c1=O
 : 4%, x
COC(=O)[C@@]1(C)C=C[C@@H](Cc2ccccc2)N1C(C)=O
 : -17%, x
Cc1ccc(S(=O)(=O)NCCCNC(=O)N2CCOCC2)cc1
 : 3%, >57
CCOc1ncccc1C(=O)OCC(=O)c1cc(C)n(Cc2ccco2)c1C
 : 8%, >57
Nc1ccccc1C(=O)C[C@@H](N)C(=O)O
 : -4%, >57
Cc1ccnc(NC(=O)C2CCC(CNc3c(N4CCCC4)c(=O)c3=O)CC2)c1 (centres undefined)
 : u, >57
CCOc1ccc2nc(NC(=O)CSc3nc4cccnc4n3C)sc2c1
 : 1%, >57
CCCCN(c1ccccc1)c1ncnc2nc[nH]c12
 : 13%, >57
CC1(C)CC(=O)c2cnc(NC(=O)C3CCCC3)nc2C1
 : -1%, x
Cc1csc(CCc2nc(C)cs2)n1
 : 0%, >57
COCCNC(=O)CCn1c(=O)oc2ccccc21
 : -10%, >57
Cc1ccc(-c2nn3c(=O)c(C)nnc3s2)cc1
 : 17%, >57
Cn1c(SCC(=O)Nc2cccc(F)c2)nnc1-c1cccnc1
 : -5%, >57
O=C(c1ccc2c(=O)n(-c3ccccc3)c(=O)[nH]c2c1)N1CCCCC1
 : -11%, >57
COc1ccc(S(=O)(=O)NCC(=O)N(CC(=O)NCC2CCCO2)c2cc(C)ccc2C)cc1 (centres undefined)
 : 1%, >57
COc1cccc(CNCCSc2nnnn2C)c1
 : 3%, >57
COc1ccc(N2CC(C)Cn3c2nc2c3c(=O)n(Cc3ccc(F)cc3)c(=O)n2C)c(OC)c1 (centres undefined)
 : u, >57
CC(=O)Nc1ccc(NC(=O)c2ccco2)cc1
 : -1%, x
Cc1ccc(C2/C(=C(/O)c3ccc(Br)cc3)C(=O)C(=O)N2Cc2ccco2)o1 (centres undefined)
 : -18%, x
Cc1cc(C(=O)OCC(=O)N2CCN(c3ccccc3)CC2)c2ccccc2n1
 : 0%, >57
CC(=O)Nc1ccc(S(=O)(=O)N2CCN(c3cccc(C)c3C)CC2)cc1
 : u, >57
CCC(=Nc1ccc(N)cc1)C1=C(O)C(C(=O)OC)C(C)(C)CC1=O (centres undefined)
 : -13%, >57
Cc1cccc2sc(NC(=O)CNS(=O)(=O)c3ccc(Br)s3)nc12
 : -29%, >57
O=C(O)CCNc1ccccc1C(=O)O
 : -5%[8 µM], >57
CCOC(=O)C1C(=O)NC(N2CCc3ccccc32)=NC1c1ccccc1 (centres undefined)
 : 1%, >57
CC1(C)CC(=O)C(C=NCc2ccc3c(c2)OCO3)=C(O)C1
 : u, >57
COCCCNC(=O)c1cn(Cc2c(F)cccc2Cl)nn1
 : -11%, >57
CCn1c(SCC(=O)Nc2nnc(C)s2)nc2c(c1=O)SC(C)C2 (centres undefined)
 : 11%, >57
O=C(O)c1nnsc1-c1ccc(-c2snnc2C(=O)O)cc1
 : 2%[8 µM], >57
CCOc1ccc(S(=O)(=O)n2ccc(C)n2)c2ccccc12
 : -22%, >57
COc1cccc(-c2csc3nnc(SCC(=O)NCc4cccs4)n23)c1
 : 19%, >57
O=C(CCSc1nnc(-c2ccncc2)o1)Nc1ccc(F)cc1
 : -5%, >57
C/C(N)=C(/C#N)C(=O)COC(=O)C(NS(=O)(=O)c1ccc(Cl)cc1)C(C)O (centres undefined)
 : -3%, >57
CCOC(=O)NC(=O)CSc1nc(C)cc(C(F)(F)F)c1C#N
 : -4%, >57
NS(=O)(=O)c1ccc(N=Nc2cc3ccccc3c(C(=O)O)c2O)cc1
 : u, >57
Cc1ccc(N2CC(C(=O)N3CCCc4ccccc43)CC2=O)cc1 (centres undefined)
 : 7%, >57
CC1(C)Cc2cccc(OCC(=O)O)c2O1
 : 5%, >57
CC(=O)NC(N1CCCCC1)C(F)(F)C(F)(F)C(F)(F)C(F)F (centres undefined)
 : -13%, >57
COc1ccccc1N(CC(=O)Nc1ccc(F)c(F)c1)S(C)(=O)=O
 : u, x
N#Cc1nc(Cc2cccc3ccccc23)oc1NCc1ccc2c(c1)OCO2
 : u, >57
Cc1ccc(OCC(=O)Nc2ccc3c(c2)nc(CCN2CCOCC2)n3C)cc1
 : x, >57
CCOC(=O)O[C@]1(C(=O)COC(=O)CC)CC[C@@H]2[C@@H]3CCC4=CC(=O)C=C[C@@]4(C)[C@H]3[C@H](O)C[C@]21C
 : -2%[3.58 µM], >57
CCCNc1nc2c(c(=O)[nH]c(=O)n2C)n1CCc1ccccc1
 : 6%, >57
Nn1c(SCC(=O)Nc2ccc3c(c2)OCO3)nnc1C1CC1
 : -4%, >57
CCOCCCNC(=O)c1c(-c2ccccc2)noc1C
 : -9%, >57
CCOC(=O)CCC(=O)Nc1ccccc1C(N)=O
 : -11%, x

Next entries follow:
Each structure is followed by: Anthrax LT inh, SmPrx2 inh
Cc1ccc2oc3c(c(=O)c2c1)C(c1cccc(Cl)c1)N(CCCN1CCOCC1)C3=O (centres undefined)
 : 10%, >57
COc1ccc2[nH]cc(CCNc3ncncc3-c3ccccc3C)c2c1
 : 10µM*, >57
CCN(CC(=O)NCc1ccc(F)cc1)CC(O)COCc1cccc(OC)c1 (centres undefined)
 : -1%, >57
N=c1n(Cc2ccccc2)c2ccccc2n1CC(O)COc1ccccc1 (centres undefined)
 : u, >57
CC(C)C(c1nnnn1Cc1cccs1)N1CCN(c2ccccc2)CC1 (centres undefined)
 : -15%, >57
Cn1nc(C(=O)Nc2ccc(S(=O)(=O)N3CCCCC3)cc2)ccc1=O
 : -12%, >57
NC(=O)C1CCN(C(=O)c2cc3n(n2)C(C(F)(F)F)CC(c2ccco2)N3)CC1 (centres undefined)
 : -4%, >57
CCOc1ccc(N(CC(=O)NCc2cccs2)S(=O)(=O)c2c(C)noc2C)cc1
 : -18%, >57
O=C(CN1CCN(Cc2ccccc2Cl)C1=O)NC1CCCCCCC1
 : u, >57
O=C(NCC(=O)N(c1ccc(F)cc1)C(C(=O)NCC1CCCO1)c1ccccc1)c1ccco1 (centres undefined)
 : -6%, >57
COc1ccc(N2CCN(Cc3nc4c(c(=O)[nH]c(=O)n4C)n3CC(C)=O)CC2)cc1
 : -6%, >57
c1ccc2c(CN3CCCCCCC3)c[nH]c2c1
 : 2%, >57

Some of the compounds tested; the hit share may differ from the screen's.
